Screening results from PubChem.
Measles inh = inhibitors of measles virus growth in infected cells; infected Vero cells, GFP fluorescence, 64 h; hits give low values; z-score (concentration not given with the values); actives 0.1% (n = 33,000); AID 745;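 active = z-score under -3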;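 note: score is relative to mean and SD of the compound wells of a plate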
An asterisk follows results filed as active. The list is partial; count on the stated rates, not on these rows.

SMILES	Measles inh
CC(=O)N1C(=O)NC2NC(=O)N(C(C)=O)C21 (configuration not stated)	-0.6
Cc1ccc2c(c1)Cc1nc3ccccc3nc1-2	0.44
O=c1[nH]c2ccccc2nc1Cc1ccccc1Cl	2
Cc1cccc(C(c2c[nH]c3ccccc23)c2c[nH]c3ccccc23)c1O	0.28
COc1ccc(-c2cc(C(F)(F)F)nc(N3CCCC3)n2)cc1	-1.3
CN(C(=O)c1cnc2n(c1=O)CCS2)c1ccccc1	-0.25
CC1CCC(NC(=O)C(Cc2ccccc2)NC(=O)C2CCCCC2)CC1 (configuration not stated)	0.26
Cc1cccc(NC(=O)CCCn2c(=S)[nH]c3ccsc3c2=O)c1	0.4
O=C(CSc1nnnn1-c1cccc2ccccc12)N1CCCc2ccccc21	0.86
O=C1c2ccccc2C(=O)c2cc(I)ccc21	-0.44
CCOc1cccc2c1OC(c1cccc(F)c1)N1N=C(c3ccc(C)o3)CC21 (configuration not stated)	1.1
CCN1CCCC1CNC(=O)Cn1cnc2sc(C)c(S(=O)(=O)N3CCOCC3)c2c1=O (configuration not stated)	-0.02
COc1cccc(-c2nn(C)c3sc(C(=O)Nc4cc(Cl)ccc4OC)cc23)c1	-1.7
Cn1cnnc1SCC(=O)Nc1ccc2nc(SCc3ccccc3)sc2c1	-1.1
COc1ccc2oc(=O)c(C(=O)N3CCc4ccccc4C3)cc2c1	-0.15
CCOC(=O)C1=C(C)Nc2ncnn2C1c1ccccc1Cl (configuration not stated)	-0.35
CC1CCN(c2ncnc3c2sc2nc(N4CCOCC4)c4c(c23)CCCC4)CC1	-0.74
COc1ccc(Cl)cc1-n1c(N)c(C(N)=O)sc1=S	0.83
Cc1ccc(C(=O)N2CCN(c3ccccn3)CC2)cc1	0
COC(=O)c1ccc(NC(=O)C2CC(=O)N(CCc3ccccc3)C(=Nc3cccc(Cl)c3)S2)cc1 (configuration not stated)	2.2
CC1(C)CC(=O)C(CCC(=O)c2ccccc2)C(C)(C)N1 (configuration not stated)	-0.41
CC1CCCCN1S(=O)(=O)c1ccc(NC(=O)COc2ccc3ccccc3c2)cc1 (configuration not stated)	-0.34
COc1ccc(N=c2oc3ccccc3cc2C(=O)Nc2ccccc2F)cc1	-0.67
Cc1ccccc1OCC(=O)NCc1ccncc1	-0.55
CC(=O)C1C(=O)CC(C)(O)C(C(C)=O)C1c1ccc(C)cc1 (configuration not stated)	-0.09
O=C(CCn1c(SCc2ccc(Cl)cc2)nc2ccccc2c1=O)N1CCN(c2ccccc2)CC1	-0.56
CCCn1cnc2sc(C(=O)N3CCN(Cc4ccc5c(c4)OCO5)CC3)c(C)c2c1=O	-0.03
COc1ccc(NC(=O)CSc2nc3ccccc3c(=O)n2Cc2ccco2)c(OC)c1	-0.41
CC(=O)c1c(C)[nH]c(C(=O)Nc2nc(C)cs2)c1C	-0.59
O=C(NCCCN1CCOCC1)c1ccc2c(c1)ncn2C1CCCCC1	-0.07
COc1cc(C=C2OC(=O)c3c2cc(C)[nH]c3=O)ccc1O	0.2
Cc1cc(C(=O)Nc2cccc(Cl)c2C)no1	-0.73
COc1ccc(OC)c2[nH]c(=O)c(CCNC(=O)c3cc(C)cc(C)c3)cc12	-0.58
O=C(NC1CCCCC1)c1c(NS(=O)(=O)c2ccccc2)sc2c1CCCC2	1.9
Clc1ccc2nc(-c3cccs3)c(NC3CCCCC3)n2c1	1.7
CCOc1ccc(-c2cn(-c3ccccc3Cl)c(=S)[nH]2)cc1	1.2
CCOC(=O)C1CCN(C(=O)c2cc3c(=O)[nH]c4ccccc4c3s2)CC1	0.51
Cc1cccc2c(C(=O)O)cc(-c3ccccc3)nc12	0.87
O=C(OC(C(=O)c1ccccc1)c1ccccc1)c1ccc(Br)c([N+](=O)[O-])c1 (configuration not stated)	-0.47
CC(=O)c1c(C)n(C)c2ccc(OC(=O)c3cccc(Br)c3)cc12	0.12
COC(=O)c1ccc(C=Nc2ccc(O)c(-c3nc4ccc(C)cc4o3)c2)cc1	-0.22
CC1CCN(c2cc(Nc3ccc(C(=O)O)cc3)c3c4c(onc24)-c2ccccc2C3=O)CC1	0.42
N=C1C(c2nc3ccccc3s2)=C(O)CN1Cc1cccnc1	1.7
O=C(c1ccccc1)c1cnc(Nc2nc3ccccc3o2)nc1-c1ccccc1	0.28
COc1ccccc1CC(=O)Nc1nccs1	-2.2
O=C1CC(c2ccc(OC(F)(F)F)cc2)c2ccc3ccccc3c2N1 (configuration not stated)	0.78
NC(=O)c1ccccc1NC(=O)c1ccc(-c2cccc(Cl)c2)o1	-0.19
O=C(Nc1ccc2oc(-c3ccccc3F)nc2c1)c1ccc([N+](=O)[O-])o1	-0.96
O=C(NCC12C=CC(O1)C1C(=O)N(Cc3ccccc3)C(=O)C12)c1cccs1 (configuration not stated)	-0.63
CC1(C)CC(=O)C(C(=S)Nc2ccccc2)=C(NCCN2CCOCC2)C1	-0.27
COC(=O)c1[nH]c2c(c1C)C(=O)CC(c1ccccc1)C2 (configuration not stated)	-0.32
CCOc1ccc(NC(=O)c2ccc(N3CC4CC(C3)c3cccc(=O)n3C4)c(NC(=O)c3cccnc3)c2)cc1 (configuration not stated)	2.4
CCOc1ccc(S(=O)(=O)N(C(C)=O)c2ccc3oc(C)c(C(C)=O)c3c2)cc1	-0.07
CC1CCN(CCCNC(=O)c2cc(Sc3ccc(F)cc3)nc3ccccc23)CC1	-0.74
Cc1noc(C)c1S(=O)(=O)N1CCC(C(=O)N2CCN(c3ccc(F)cc3)CC2)CC1	0.9
CCOC(=O)C1=C(C)Nc2nc(SCc3ccc(C)cc3C)nn2C1c1ccc([N+](=O)[O-])cc1 (configuration not stated)	-1.3
CCN(CC)c1ccc2cc(-c3nc(-c4ccc(C)c(C)c4)cs3)c(=O)oc2c1	5.5
CCOc1ccc(NC(=O)CC2Nc3cc(C)c(C)cc3NC2=O)cc1 (configuration not stated)	0.33
CCOC(=O)c1nn(-c2ccc(C)cc2)c(=O)c2c(NC(=O)c3cc(Cl)ccc3OC)scc12	-2.8
Cc1ccc(-n2nc3c(c2NC(=O)c2ccc(C)c([N+](=O)[O-])c2)CS(=O)(=O)C3)cc1	1
(more compounds)
SMILES	Measles inh
N#Cc1c(N=Cc2c[nH]c3ccccc23)oc(-c2ccccc2)c1-c1ccccc1	0.68
Clc1ccc2oc(-c3ccccc3)nc2c1	-0.3
Cc1oc2c(cc(NS(=O)(=O)c3cccs3)c3ccccc32)c1C(=O)OCc1ccccc1	2.2
Cc1ccc(OCC(=O)Nc2ccc(S(=O)(=O)N3CCCC3)cc2)cc1	0.96
O=C(NCc1cccs1)C1CCCN(S(=O)(=O)c2cccs2)C1 (configuration not stated)	-0.74
COc1ccc(-n2ncc3c(Nc4cccc5c4CCCC5)ncnc32)cc1	-1.4
O=C(C1CCCN(S(=O)(=O)c2cccc3nonc23)C1)N1CCN(c2cccc(C(F)(F)F)c2)CC1 (configuration not stated)	-0.94
COc1ccc(C(=O)Nc2cc3cccc([N+](=O)[O-])c3oc2=O)c(Cl)c1	0.95
O=C(Nc1nccs1)c1cc2cc([N+](=O)[O-])ccc2oc1=Nc1cccc(Br)c1	0.53
COc1ccc(N2CCN(C(=O)c3ccc(-n4c(=S)[nH]c5ccccc5c4=O)cc3)CC2)cc1	2.3
COc1ccc(Cl)cc1Nc1nc(C)nc2sc(C)c(C)c12	0.13
CC(=O)N1N=C(c2cccc([N+](=O)[O-])c2)OC1(C)C	-0.66
CCOC(=O)C1=C(N)OC2=C(C(=O)CCC2)C1c1ccc2c(c1)OCO2 (configuration not stated)	1.5
O=C(Cn1ccc2ccccc2c1=O)NCCC(=O)NC1CCCC1	-0.19
Cc1ccc(S(=O)(=O)N(CC(=O)Nc2ccc(S(=O)(=O)N3CCCCC3)cc2)c2ccccc2)cc1	-0.39
CCCn1c(=O)c(C(=O)NCc2cccc(F)c2)c(O)c2ccccc21	-0.03
Cn1c(=O)c2c(nc(N3CCCC3)n2CCCc2ccccc2)n(C)c1=O	0.62
COc1cccc(C2C3=C(CC(c4ccccc4)CC3=O)Nc3ccccc3N2C(=O)CCC(=O)O)c1 (configuration not stated)	1.3
Cn1cnc([N+](=O)[O-])c1Sc1nc2ccccc2[nH]1	-2.5
COc1ccc(NC(=O)Cn2cnc3sc(C)c(S(=O)(=O)N4CCC(C)CC4)c3c2=O)cc1Cl	0.84
CCN1C(=O)c2cccc3c(NC(=O)c4ccc(S(=O)(=O)N(C)c5ccccc5)cc4)ccc1c23	0.08
Cn1ccnc1SCC(=O)Nc1ccccn1	-2.2
Cc1ccn2c(NC3CCCCC3)c(-c3ccc(Cl)cc3)nc2c1	0.87
COC(=O)c1ccc(N2C(=O)CSC2c2ccc(C(C)(C)C)cc2)cc1 (configuration not stated)	-1.8
O=C1c2ccccc2C(=O)c2c1oc1c3c(ccc21)OCN(Cc1cccnc1)C3	-0.18
COc1ccc(C2C3=C(Nc4ncnn42)c2ccccc2OC3c2ccccc2F)cc1Br (configuration not stated)	-0.12
COc1ccc(NC(=O)C2c3cc(OC)c(OC)cc3C(=O)N(C)C2c2ccccc2F)cc1Cl (configuration not stated)	0.34
COc1ccc(C2CC(=O)C3=C(C2)NC(C)=C(C(=O)OC2CCCCC2)C3c2ccc(SC)cc2)cc1OC (configuration not stated)	-0.53
COc1ccccc1-n1cnc2cc(C(=O)NCC3CCCO3)ccc21 (configuration not stated)	0.18
CCOc1ccccc1C1C(C(=O)OC2CCCCC2)=C(C)Nc2ncnn21 (configuration not stated)	-0.69
O=C(CN1N=C(c2ccccc2)CCC1=O)N1CCOCC1	-1.8
COc1ccc(Cl)cc1NC(=O)CN1CCN(C)CC1	-1
O=C(Nc1nc(-c2cccc([N+](=O)[O-])c2)cs1)c1cccnc1	0.52
CCCN(CCC)CCNC(=O)c1c(C)cc(=O)oc1C	0.97
COC1=CCCC2C=CC3C(CCC4(C)C3CCC43CCC(=O)O3)C12C (configuration not stated)	-0.09
Cc1nccn1-c1nc(-c2ccc(F)cc2)cc(C(F)(F)F)n1	-0.13
CCC(=O)Nc1cccc(-c2cn3cccc(C)c3n2)c1	-0.65
CCc1ccc(N2C(=O)NC3CC2(C)Oc2ccc([N+](=O)[O-])cc23)cc1 (configuration not stated)	-0.75
CS(=O)(=O)N1CCC(C(=O)NCCc2ccccc2)CC1	0.08
O=C(Nc1ccc(I)cc1)c1cccnc1Cl	-1.1

Pulled one by one from the list above (four):
SMILES	Measles inh
CCN1C(=O)c2cccc3c(NC(=O)c4ccc(S(=O)(=O)N(C)c5ccccc5)cc4)ccc1c23	0.08
COc1ccc(Cl)cc1NC(=O)CN1CCN(C)CC1	-1
COC(=O)c1ccc(N2C(=O)CSC2c2ccc(C(C)(C)C)cc2)cc1 (configuration not stated)	-1.8
Cc1nccn1-c1nc(-c2ccc(F)cc2)cc(C(F)(F)F)n1	-0.13

New compounds follow
SMILES	Measles inh
CCOC(=O)c1ccc2c(c1)C1C=CCC1C(c1ccccc1Br)N2 (configuration not stated)	-0.59
Cc1nnc(Sc2cc(C(=O)NCCN(C)Cc3ccccc3)c3ccccc3n2)s1	-0.7
COc1ccccc1C1SCCN1C(=O)Nc1ccc2ccccc2c1 (configuration not stated)	-1.3
Cc1ccc2c(c1)sc(=NC(=O)c1ccc(S(=O)(=O)N3CCCCC3)cc1)n2C	0.07
Cc1nc(Nc2nc3ccccc3s2)[nH]c(=O)c1Cc1ccccc1	-0.64
COC(=O)C(CC(C)C)NC(=O)CCC1CCCCC1 (configuration not stated)	-0.62
S=c1oc(-c2ccncc2)nn1CCc1ccncc1	-0.16
O=C(c1cc2cc3ccc(Cl)cc3nc2o1)N1CCCCCC1	-0.16
O=C(Nc1ccc2c(c1)OCO2)N1c2ccccc2Sc2ccccc21	-0.42
COc1ccc(-c2n[nH]c3c2C(c2ccccc2F)N(c2ccccc2)C3=O)cc1 (configuration not stated)	-0.17
CC(=O)c1cccc(NC(=O)C2CCN(S(=O)(=O)c3ccc(Br)s3)CC2)c1	1.5
COc1cccc(C(=O)Oc2ccc(N3C(=O)C4CCCCC4C3=O)cc2)c1 (configuration not stated)	-0.19
COc1cccc(NC(=O)C2c3ccccc3C(=O)N(C)C2c2ccc(OC)c(OC)c2)c1 (configuration not stated)	-0.67
Cc1ccc(CNC(=O)CCNC(=O)Cn2ccc3ccccc3c2=O)cc1	-0.31
CCOC(=O)C(NC(=O)c1ccco1)(Nc1sc2c(c1C#N)CCC(C)C2)C(F)(F)F (configuration not stated)	-0.57
CCN(CC)c1ccc(C2C(C(=O)OC3CCCC3)=C(C)NC3=C2C(=O)CC(C)(C)C3)cc1 (configuration not stated)	-0.53
CCc1ccc(NC(=O)CCCn2nc([N+](=O)[O-])c(Cl)c2C)cc1	-0.33
Cc1cc(=O)[nH]c(SCC(=O)Nc2cccc(C(F)(F)F)c2)n1	-0.26
O=C(c1ccc([N+](=O)[O-])cc1)N1N=C(C(F)(F)F)CC1(O)c1ccncc1 (configuration not stated)	0.89
O=C(Cn1c(NCCO)nc2ccccc21)c1ccco1	0.7
COc1ccc(CCNC(=O)C(=O)Nc2cccc(Br)c2)cc1	0.53
CCOC(=O)c1ccccc1NC(=O)C1COc2ccccc2O1 (configuration not stated)	-1.1

Structural class, the compounds so far containing a CF3 group.
SMILES	Measles inh
COc1ccc(-c2cc(C(F)(F)F)nc(N3CCCC3)n2)cc1	-1.3
O=C1CC(c2ccc(OC(F)(F)F)cc2)c2ccc3ccccc3c2N1 (configuration not stated)	0.78
O=C(C1CCCN(S(=O)(=O)c2cccc3nonc23)C1)N1CCN(c2cccc(C(F)(F)F)c2)CC1 (configuration not stated)	-0.94
Cc1nccn1-c1nc(-c2ccc(F)cc2)cc(C(F)(F)F)n1	-0.13
CCOC(=O)C(NC(=O)c1ccco1)(Nc1sc2c(c1C#N)CCC(C)C2)C(F)(F)F (configuration not stated)	-0.57
Cc1cc(=O)[nH]c(SCC(=O)Nc2cccc(C(F)(F)F)c2)n1	-0.26
O=C(c1ccc([N+](=O)[O-])cc1)N1N=C(C(F)(F)F)CC1(O)c1ccncc1 (configuration not stated)	0.89
